Six1-Eya2 inh: qHTS Assay for Inhibitors of the Six1/Eya2 Interaction; Homeobox protein SIX1 (Homo sapiens) + Protein phosphatase EYA2 (Homo sapiens), …; AlphaScreen GST-Six1/His-Eya2 binding, biochemical; active compounds read low; control for the full effect not named in the record; activity change, % (concentration not given with the values); hit rate 0.56% among 360,000; AID 651725, 2012; in the data active = activity change below about -65%; inconclusive = about -30% to -65%; inactive = above about -30%; also: % is scaled to controls: 0 for no effect and ±100 for the full control effect
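Compounds are tested against tagged Six1 and Eya2 proteins bridged by glutathione donor and nickel acceptor beads; after a one-hour incubation at 37 °C without light, AlphaScreen emission is recorded.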
TRPML1 inh: qHTS for Inhibitors of the Human Mucolipin Transient Receptor Potential 1 (TRPML1); Mucolipin-1 (Homo sapiens), Q9GZU1; TRPML1-inducible cells, Ca2+ dye fluorescence, FDSS; active compounds read low; inhibition of EC80 agonist-evoked calcium signal; activity change, negative = inhibition, % (no concentration beside the values); hit rate 0.02% among 390,000; AID 624415, 2012; in the data active means activity change below about -50%; inconclusive means about -30% to -50%; inactive means above about -30%;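 also: stimulus is agonist 54-4 at its EC80 concentration; % is scaled to controls: 0 for no effect and ±100 for the full control effect; compound concentration not given in the record; the text of the record puts the active cut at -80%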
Target sequence (Q9GZU1 whole entry, looked up): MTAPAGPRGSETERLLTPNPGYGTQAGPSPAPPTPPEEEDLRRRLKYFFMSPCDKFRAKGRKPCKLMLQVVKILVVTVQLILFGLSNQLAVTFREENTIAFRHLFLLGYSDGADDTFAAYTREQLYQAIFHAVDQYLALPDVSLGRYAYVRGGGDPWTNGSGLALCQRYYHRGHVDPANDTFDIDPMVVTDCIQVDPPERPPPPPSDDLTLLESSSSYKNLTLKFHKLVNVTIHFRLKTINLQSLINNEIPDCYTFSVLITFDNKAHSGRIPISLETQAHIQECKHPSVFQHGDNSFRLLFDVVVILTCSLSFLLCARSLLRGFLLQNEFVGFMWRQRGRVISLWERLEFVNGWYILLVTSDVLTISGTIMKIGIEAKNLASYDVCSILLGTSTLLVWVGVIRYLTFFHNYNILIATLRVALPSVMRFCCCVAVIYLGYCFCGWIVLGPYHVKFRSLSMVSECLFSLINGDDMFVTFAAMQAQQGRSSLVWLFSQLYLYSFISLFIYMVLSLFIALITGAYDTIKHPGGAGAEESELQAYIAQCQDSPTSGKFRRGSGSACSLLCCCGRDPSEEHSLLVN
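TRPML1-DL cells, Tet-induced overnight (~16 h, 37 °C) at 1,500 cells/well, were loaded with Ca8 no-wash dye plus quencher for 45-90 min at room temperature. Compounds were pinned during FDSS kinetic reading; agonist 54-4 at EC80 (4 uM final) then added.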
D2 potentiator: Beta-Arrestin HTS for Positive Allosteric Modulators of the Human D2 Dopamine Receptor: Potentiators; D(2) dopamine receptor (Homo sapiens), P14416; DiscoveRx D2 beta-arrestin cells, luminescence, 90 min; 100% = 57 uM dopamine signal; potentiation, % (test concentration not listed); hit rate 0.23% among 360,000; active = potentiation of 50% or more; inconclusive = 30% to 50%; inactive = 30% or less;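 also: compound concentration not given in the record; tested on top of an EC20 dose of dopamine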
Target sequence (P14416 whole entry, looked up): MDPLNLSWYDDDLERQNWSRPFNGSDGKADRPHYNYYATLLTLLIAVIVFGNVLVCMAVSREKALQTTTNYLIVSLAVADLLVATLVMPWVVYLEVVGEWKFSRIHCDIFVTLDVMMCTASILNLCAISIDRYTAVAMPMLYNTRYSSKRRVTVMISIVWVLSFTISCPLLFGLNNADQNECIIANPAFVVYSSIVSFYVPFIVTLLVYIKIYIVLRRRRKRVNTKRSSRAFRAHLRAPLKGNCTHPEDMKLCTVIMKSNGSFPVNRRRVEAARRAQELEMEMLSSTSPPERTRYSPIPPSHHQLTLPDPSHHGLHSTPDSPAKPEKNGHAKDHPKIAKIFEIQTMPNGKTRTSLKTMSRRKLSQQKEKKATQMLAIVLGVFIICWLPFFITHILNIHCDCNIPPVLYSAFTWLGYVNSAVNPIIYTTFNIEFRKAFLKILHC
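PathHunter D2 cells, attached overnight at 37 deg C, received compound in DMSO plus dopamine at EC20 (50 nM final) for 90 min at 37 deg C. Beta-arrestin recruitment was read as luminescence after 1 h with detection reagent at ambient temperature.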
PINK1 modulator: A Quantitative High throughput Screen to Identify Chemical Modulators of PINK1 Expression. AID 624263, 2012. Potency, µM (series often up to 76.6 µM), for the others: at the highest dose activation (PINK1 increase), actives largely listed as activators. hit rate 0.2% among 410,000. PINK1 immunofluorescence, high-content cytometry, 24 h; active = well fitted activation curve with a large enough effect; inconclusive = small, poorly fitted or top-dose-only effect; inactive = flat fitted curve, though single readings scatter; cell line not stated here;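 also: potency is read from the fitted curve at half-maximal effect; % of control where 0% means no effect; nearly all actives have a fitted effect of over 65% in size; a mitochondrial uncoupler was the plate control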
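Stable cell line treated 24 h with compounds at 5 concentrations (CCCP controls), then fixed and immunostained for PINK1 plus nuclear and cell stains; PINK1 immunofluorescence quantified by laser-scanning microplate cytometry.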
TRPML1 agonist: qHTS for Agonists of the Human Mucolipin Transient Receptor Potential 1 (TRPML1). Mucolipin-1 (Homo sapiens), Q9GZU1. TRPML1-expressing cells, Ca2+ dye fluorescence, FDSS; host cell line not named in the record; reference of the full effect not given here. activation, % (concentration not given with the values). hit rate 0.12% among 410,000. AID 624414, 2012; in the data active = activation above about 50%; inconclusive = about 30% to 50%; inactive = below about 30%; also: 0% is about no effect; the text of the record puts the active cut at 80%
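Tetracycline-induced TRPML1-DL cells are seeded and incubated overnight before loading with a no-wash Ca2+ dye and quencher. Agonist activity is taken from the 110 s fluorescence read following compound pin-transfer on an FDSS, before EC80 54-4 challenge.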
D2 agonist: Beta-Arrestin HTS for Positive Allosteric Modulators of the Human D2 Dopamine Receptor: Agonists | hit rate 0.084% among 360,000 | activation, % (no concentration beside the values) | DiscoveRx PathHunter D2 beta-arrestin, luminescence, 90 min; 100% = 57 uM dopamine signal | D(2) dopamine receptor (Homo sapiens), P14416; in the data active = activation above about 40%; inconclusive = about 15% to 40%; inactive = below about 15%; also: compound concentration not given in the record; the text of the record calls up to 30% inactive
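DiscoveRx PathHunter D2 beta-arrestin cells (2,100/well) attached overnight, then compound-stimulated 90 min at 37 C in HBSS/10 mM HEPES/0.1% Tween-20 buffer; beta-galactosidase complementation read by luminescence after 1 h at ambient temperature. Dopamine 57 uM final (EC100) as control.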
Numbers without * were called inactive; ? = inconclusive; nt = no result given; [ ] = another dose, or the depositor's remark.

SMILES	Six1-Eya2 inh	TRPML1 inh	D2 potentiator	PINK1 modulator	TRPML1 agonist	D2 agonist
COc1ccc(OC)c(C2C3=C(N=c4s/c(=C\c5cccc(O)c5)c(=O)n42)c2ccccc2CC3)c1 (configuration not stated)	-10.3	-2.9	1.9	7.1%	2.5	5.5
O=C(Nc1ccc(S(=O)(=O)NC2=NCCCCC2)cc1)c1ccc(=O)[nH]c1	-9.7	-1.9	-7.1	1.6%	2.3	-0.5
COC(=O)c1cccc(N2CCCC2=O)c1	3.6	10.5	-10.7	-1.3%	-0.6	-2.3
COc1ccc(CNc2nc3nc(C)cc(C)n3n2)cc1OC	-0.4	-1.8	0.7	-1.2%	2.6	-0.2
O=C(Cc1ccc(NC(=O)C2CCCN(C(=O)C3CC3)C2)cc1)Nc1cccc(C(=O)N2CCCC2)c1 (configuration not stated)	3.9	10.2	nt	2.3%	-0.7	0.4
COc1ccc(OCC(=O)O/N=C(\N)Cc2ccc(Cl)cc2Cl)cc1	26.5	15.0	-20.1	-1.1%	3.4	-1.4
CSc1nnc(-c2nnc(SC)n2-c2ccccc2)n1-c1ccccc1	-0.2	10.7	-28.3	1.2%	-0.2	-4.3
Cc1ccn2cc(C(=O)Nc3ccccc3N3CCOCC3)nc2c1	2.0	-6.6	-4.6	nt	1.0	0.6
CC(=O)Nc1cc(S(=O)(=O)C(F)(F)F)ccc1Cl	1.8	9.9	-34.0	2.1%	6.8	-5.5
C=C(C)Cn1c(N2CCC(Cc3ccccc3)CC2)nc2c1c(=O)[nH]c(=O)n2C	-7.6	-5.7	0.2	-0.5%	1.2	-0.9
CC1CN(C(=O)COC(=O)c2cccc(NS(=O)(=O)c3ccccc3)c2)CC(C)O1 (configuration not stated)	2.5	-4.6	7.4	-0.7%	2.2	-0.4
CCCc1cc(=O)[nH]c(Nc2cccc(Cl)c2Cl)n1	nt	41.2	nt	1.7%	1.0	nt
C1=C(c2ccco2)N2CCN=C2S1	7.0	-15.3	-2.8	-1.1%	1.1	2.6
COc1ccc2c(c1)CCc1cnoc1-2	5.5	6.5	-7.0	0.8%	-0.4	-2.1
CCn1nc(C(=O)Nc2ccccc2N2CCCC2)c2ccccc2c1=O	-29.5	-9.7	3.0	7.9%	-0.7	3.7
CCOc1ccc(S(=O)(=O)N(CC(=O)NCc2ccncc2)c2ccc(C)cc2)cc1	-3.7	0.8	-7.9	7.0%	-1.7	-2.6
N/C(=N\OC(=O)COc1ccc2ccccc2c1)c1cccnc1	8.0	-6.6	8.1	1.0%	0.1	3.8
CCCCC(=O)Nc1ncc([N+](=O)[O-])s1	12.8	8.9	-13.5	2.2%	0.1	-2.9
COC(=O)CCn1nnc(-c2ccc(C)cc2)n1	6.0	5.0	-0.5	8.8%[38.3 µM]	-0.3	-3.2
COc1ccc(Nc2nnc(-c3ccc(C)c(S(=O)(=O)NCCO)c3)c3ccccc23)cc1C(N)=O	nt	-4.2	nt	1.3%	-0.4	nt
Cc1cccc(Oc2nc(CN3CCOCC3)nc3sc4c(c23)CCCC4)c1	-9.2	19.8	-11.5	0.4%	1.3	-5.9
N#CC(C#N)=C1SC(=Nc2ccccc2)C(=Nc2ccccc2)N1c1ccccc1	12.3	33.2	-35.6	31.6µM*	1.4	0.5
CN(C(=O)c1coc(=O)c2ccccc12)c1ccc(Br)cc1	3.0	-3.9	-1.2	0.3%	-0.3	-0.5
c1ccc2c3c([nH]c2c1)C1(CCCCC1)NCC3	-5.3	nt	-49.7	0.1%	nt	-7.2
Nn1cnnc1N/N=C/c1cc([N+](=O)[O-])c(Cl)cc1Cl	-1.6	44.0	-11.1	2.1%	1.8	8.1
O=C(Cn1nc2ccccc2n1)N/N=C/c1cc(Cl)cc([N+](=O)[O-])c1O	?	1.9	-4.4	2.4%	-0.1	-8.1
Cc1ccc(C(=O)OCC(=O)c2c[nH]c3ccccc23)cc1	-3.8	29.6	-8.8	3.3%	-0.2	3.9
Cc1ccc(S(=O)(=O)NNC(=O)c2ccncc2)cc1	0.5	15.0	-7.4	6.4%	-0.5	-3.2
Cc1ccc(-n2c(SCc3ccccc3)nc3c([nH]c4ccccc43)c2=O)cc1	nt	-7.2	nt	-2.3%	1.8	nt
COC(=O)c1ccccc1S(=O)(=O)N1CCC(C(=O)OCc2ccc([N+](=O)[O-])cc2)CC1	-13.9	2.8	3.1	0.6%	0.2	0.6
Nc1ccc(Cc2ccccn2)cc1	4.3	16.1	-59.8	-0.7%	1.8	-7.9
COc1cccc(CNCC(O)COc2ccc(C(=O)c3ccccc3)cc2)c1 (configuration not stated)	-10.4	-25.0	-6.9	6.1%	0.8	-2.3
COCCN(Cc1cc2cc3c(cc2n2nnnc12)OCO3)C(=O)c1ccccc1F	2.4	26.5	7.6	0.0%[38.3 µM]	2.8	-1.6
O=C(Nc1nc(-c2ccc(Cl)cc2)cs1)c1cccnc1	-1.5	2.4	-1.2	6.3%	-1.0	-2.1
CCCn1c2ccccc2c2cn[nH]c(=O)c21	1.5	11.3	-5.9	-3.5%	-1.6	-4.3
CC(C)c1ccc(C2NC(=S)NC3=C2C(=O)CCC3)cc1 (configuration not stated)	0.0	52.2	-11.6	7.8%	0.0	-5.5

A few values from above.
Value of Cc1ccc(S(=O)(=O)NNC(=O)c2ccncc2)cc1 in D2 potentiator: -7.4
Value of CC(C)c1ccc(C2NC(=S)NC3=C2C(=O)CCC3)cc1 (configuration not stated) in Six1-Eya2 inh: 0.0

The listing continues:
SMILES	Six1-Eya2 inh	TRPML1 inh	D2 potentiator	PINK1 modulator	TRPML1 agonist	D2 agonist
COc1ccccc1NC(=O)Nc1nc(CC(=O)Nc2ccc(F)cc2)cs1	-2.6	-13.8	0.8	14.9%	1.9	1.7
O=C(CSc1ccccc1)Nc1ccccc1C(=O)N1CCCC1	3.4	-9.3	-8.9	-0.3%	0.7	1.4
O=C(CC(NCCN1CCOCC1)C(=O)O)Nc1cccc(Cl)c1 (configuration not stated)	-5.3	14.7	2.2	0.9%	-0.1	-0.2
Nc1cc(=O)c2[nH]cnc2[nH]1	-8.8	-4.3	-6.4	-0.4%	0.0	-4.4
CC(NC(=O)COC(=O)CCC(=O)c1ccc(F)cc1)c1ccccc1 (configuration not stated)	-0.4	24.7	-1.5	2.4%	2.5	-1.8
CCC(Sc1ncccn1)C(=O)Nc1cc(C)on1 (configuration not stated)	0.2	-1.3	-0.2	2.0%	1.4	-1.3
COc1ccc(CN2CCC2(C)C(=O)Nc2ccc(OC)c(OC)c2)cc1 (configuration not stated)	2.3	nt	4.7	0.9%	-1.1	2.7
CN(C(=O)c1cccc(NC(=O)Cc2cccc(NC(=O)C3CCCN(C(=O)C4CCCCC4)C3)c2)c1)C1CCC1 (configuration not stated)	6.0	29.0	6.4	-0.1%	3.3	3.4
Cc1nnc(SCC(=O)Nc2sc3c(c2C(N)=O)CCC(C)C3)[nH]c1=O (configuration not stated)	-0.4	-3.5	0.1	-0.7%	-0.5	-8.3
CCCCC(=O)Nc1ccc(C(=O)NN2C(=O)c3ccccc3C2=O)cc1	1.3	-16.4	0.7	1.0%[38.3 µM]	2.1	-1.9
Fc1ccc(N2CCN(c3cnc4ccccc4n3)CC2)cc1	4.3	nt	-10.6	1.2%	nt	0.6
CCN(CC)C(=O)CSc1nc2c(c(=O)n(C)c(=O)n2C)n1Cc1ccccc1	nt	-6.4	nt	1.5%	3.2	nt
O=C(NCCCn1ccnc1)c1cc(C2CC2)on1	-1.8	10.7	10.4	-0.3%	-0.8	-6.1
CCCCn1c(=S)[nH]c2cc(S(=O)(=O)N3CCOCC3)ccc21	0.4	-4.6	-0.3	1.0%	0.0	9.5
O=c1c2ccccc2nc(-c2ccc(Cl)cc2Cl)n1O	-0.5	3.5	-3.1	0.8%	0.9	-1.0
Cc1nnc(SCC(=O)Nc2nc(C(C)(C)C)cs2)s1	4.9	-16.8	6.7	-5.8%[38.3 µM]	-0.3	1.4
C=CCN1c2ccccc2[C@]23C[C@@H](C(=O)OC)N(C(=O)CC(C)C)C2=NC(C(=O)OC)=C(C(=O)OC)[C@H]13	-28.0	25.8	-2.2	3.1%	1.3	-1.6
CC(C)(C)NC(NC(=O)Cc1ccccc1)C(Cl)(Cl)Cl (configuration not stated)	2.3	-10.3	-3.1	4.9%	-0.2	-1.2
O=C(CSc1cccc2cccc(Cl)c12)OCC(=O)N1CCN(C(=O)c2ccco2)CC1	-5.4	-4.5	-1.4	-2.8%	0.1	-2.2
Cc1nc2c(cc1C(=O)N/N=C/c1ccc(O)c(O)c1)c(=O)n(C)c(=O)n2C	?	-12.5	6.5	?	-0.2	-1.7
CC(C)(C)N1CC(c2nc3ccccc3n2Cc2ccc(Cl)cc2)CC1=O (configuration not stated)	-1.5	-16.2	6.7	-2.5%[38.3 µM]	0.2	-1.5
CCOc1ccc(-c2cc(C(=O)NCCc3ccc(Cl)cc3)c3ccccc3n2)cc1	nt	-14.5	nt	-1.3%	-0.4	nt
Cc1ccc(S(=O)(=O)N2C[C@H]3C(=O)C[C@@H](c4ccccc4)N(S(=O)(=O)c4ccc(C)cc4)[C@H]3C[C@H]2c2cccc3ccccc23)cc1	-2.0	-2.4	-1.5	11.4%	56.5*	-2.5
COc1ccc(NC(=O)CSc2nc(NS(=O)(=O)c3ccc(C)cc3)cc(=O)[nH]2)cc1	-17.5	3.3	9.3	-30.1%[inhibitor][38.3 µM]	0.3	0.6
COc1cc(NC(=O)CCS(=O)(=O)c2nc(-c3ccc4c(c3)OCO4)cc(C(F)(F)F)n2)cc(OC)c1OC	nt	14.6	nt	0.2%	-0.3	nt
Cc1nc(NC(=O)CN(C)S(=O)(=O)c2ccc(Br)cc2)sc1C	-9.9	-27.3	5.2	-5.8%[38.3 µM]	-0.1	1.0
O=C(NCCS(=O)(=O)N1CCN(c2ccccc2)CC1)C(c1ccccc1)c1ccccc1	nt	11.0	nt	3.4%	2.5	nt
COc1cccc(S(=O)(=O)Nc2ccc3c(c2)[C@@H]2C[C@@H](CC(=O)NCc4ccc(Cl)cc4)O[C@@H](CO)[C@@H]2O3)c1	18.8	-21.4	-0.1	4.3%	0.5	5.8
